A1 apoptosis 2: compounds inhibiting A1, read as caspase activation; MEF A1-2A-BIM cells, caspase-Glo luminescence, 3 h; percent of clofoctol response, DMSO zero; caspase activation, % (concentration not given with the values); 24,000 tested, under 10 active; in the data active = caspase activation above about 5.9%;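 note: wells of about 30 µL received 50 nL stock; the first replicate is given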
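Material: mouse embryonic fibroblasts co-expressing A1 and BIM (A1-2A-BIM), primed for A1 dependence / Quantity: 2500 cells/well / Buffer or medium: RPMI-1640 growth medium with 10% FBS / Doses: 50 nL compound per well, pinned / Schedule: 3 h compound exposure at 37 °C / Signal: Caspase-Glo luminescence (DEVD substrate) / Measure: Caspase-3/7 activation, seen as rise in luminescence signal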
* marks the source's active call; other numbers are inactive results. Only part of the results is shown (hit frequency here may not be typical).

SMILES	A1 apoptosis 2
COc1ccccc1CN(C)C[C@@H]1OCc2cn(nn2)CCCC(=O)N([C@@H](C)CO)C[C@@H]1C	-0.7
C[C@H]1CN([C@@H](C)CO)C(=O)c2cccc(NS(=O)(=O)c3cccs3)c2O[C@@H]1CN(C)Cc1ccc(Cl)c(Cl)c1	1.7
COc1ccc(NC(=O)N(C)C[C@H]2Oc3ccc(NC(=O)Nc4cccc5ccccc45)cc3CC(=O)N([C@H](C)CO)C[C@@H]2C)cc1	1.0
C[C@@H]1CCCCO[C@@H](CN(C)C(=O)Nc2ccccc2)[C@@H](C)CN([C@@H](C)CO)C(=O)c2cc(NC(=O)Cc3ccccc3)ccc2O1	-0.8
COc1ccc(S(=O)(=O)N(C)C[C@@H]2Oc3ccc(NC(=O)Nc4ccc5c(c4)OCO5)cc3C(=O)N([C@@H](C)CO)C[C@@H]2C)cc1	-1.0
C[C@@H]1CN([C@@H](C)CO)C(=O)Cc2cc(NC(=O)c3ccncc3)ccc2O[C@H]1CN(C)C	0.1
C[C@@H]1CN([C@H](C)CO)C(=O)c2cc(NC(=O)C3CC3)ccc2O[C@H]1CN(C)S(=O)(=O)c1cn(C)cn1	-0.7
C[C@@H]1CN([C@@H](C)CO)C(=O)Cc2cc(NC(=O)Nc3ccc4c(c3)OCO4)ccc2O[C@@H]1CN(C)C	-0.2
C[C@H](CO)N1C[C@H](C)[C@H](CN(C)C(=O)Nc2ccc(C(F)(F)F)cc2)Oc2c(cccc2N(C)C)C1=O	-0.4
C[C@@H]1CN([C@@H](C)CO)C(=O)c2cc(NS(=O)(=O)c3cccs3)ccc2O[C@@H]1CN(C)C	-0.5
Cc1ccc(S(=O)(=O)Nc2ccc3c(c2)C(=O)N([C@H](C)CO)C[C@@H](C)[C@@H](CN(C)C(=O)NC2CCCCC2)O3)cc1	1.2
C[C@@H]1CN([C@H](C)CO)C(=O)c2cc(NC(=O)CCC(F)(F)F)ccc2O[C@@H](C)CCCCO[C@@H]1CN(C)S(=O)(=O)c1ccc(F)cc1	1.2
COc1ccc(S(=O)(=O)N(C)C[C@@H]2Oc3ccc(NC(=O)NC4CCCCC4)cc3C(=O)N([C@@H](C)CO)C[C@H]2C)cc1	-0.4
C[C@H](CO)N1C[C@H](C)[C@H](CN(C)S(C)(=O)=O)Oc2c(NS(=O)(=O)c3ccccc3)cccc2C1=O	2.0
CC(=O)[C@@]12O[C@]3(COC[C@H](c4ccccc4)N3C1=O)[C@@H]1C(=O)N(c3ccccc3)C(=O)[C@@H]12	0.2
CNC[C@@H]1Oc2ccc(NC(=O)CCN3CCOCC3)cc2C(=O)N([C@H](C)CO)C[C@H]1C	0.6
C[C@]12CCC3C4(C=CC5(C=C4C(=O)c4ccc(F)c(F)c4)C[C@@H](O)CC[C@]35C)C1CC[C@@]2(O)CN1CCC(C(N)=O)CC1 (stereo partly specified)	0.6
C[C@H](CO)N1C[C@H](C)[C@H](CN(C)S(C)(=O)=O)Oc2ccc(NC(=O)Nc3cccc4ccccc34)cc2C1=O	-0.9
C[C@H]1CCCCO[C@H](CN(C)C)[C@@H](C)CN([C@@H](C)CO)C(=O)c2cc(NC(=O)CCC(F)(F)F)ccc2O1	-1.0
C[C@@H]1CN([C@H](C)CO)C(=O)c2cc(NC(=O)NC3CCCCC3)ccc2O[C@H]1CN(C)S(=O)(=O)c1ccc(Cl)cc1	0.2
C[C@@H]1CN([C@@H](C)CO)C(=O)c2cc(NS(=O)(=O)c3ccc(F)cc3)ccc2O[C@H]1CN(C)Cc1ccncc1	0.8
C[C@H](CO)N1C[C@H](C)[C@H](CN(C)C(=O)Nc2ccccc2)Oc2ncccc2C1=O	0.1
COc1ccc(/C=N/NC(=O)CCCCCCC(=O)Nc2ccccc2O)cc1	-0.2
COc1ccc(S(=O)(=O)Nc2ccc3c(c2)C(=O)N([C@H](C)CO)C[C@H](C)[C@@H](CN(C)Cc2ccc(C(F)(F)F)cc2)O3)cc1	-0.6
C[C@@H]1CCCCO[C@@H](CN(C)S(=O)(=O)c2cccs2)[C@@H](C)CN([C@H](C)CO)C(=O)c2cc(NC(=O)NC3CCCCC3)ccc2O1	2.1
COc1ccc(S(=O)(=O)Nc2ccc3c(c2)C(=O)N([C@@H](C)CO)C[C@H](C)[C@H](CN(C)C(=O)Nc2ccccc2)OCCCC[C@H](C)O3)cc1	-0.7
C[C@H](CO)N1C[C@H](C)[C@@H](CN(C)Cc2ccncc2)OCCCC[C@H](C)Oc2ccc(N(C)C)cc2C1=O	-1.4
COc1cccc(/C=C2\SC(=S)N(CCCC(=O)O)C2=O)c1	-1.6
C[C@H](CO)N1C[C@H](C)[C@H](CN(C)C(=O)Nc2ccc(F)cc2)Oc2c(NC(=O)C3CCOCC3)cccc2C1=O	0.3
C[C@H]1CN([C@@H](C)CO)C(=O)c2cccc(NS(=O)(=O)c3ccc(F)cc3)c2O[C@H]1CN(C)Cc1ccc(C(=O)Nc2ccccc2N)cc1	0.1
C[C@H]1CN([C@@H](C)CO)C(=O)c2cccc(NS(=O)(=O)c3ccccc3)c2O[C@H]1CN(C)C(=O)Nc1ccc2c(c1)OCO2	0.1
C[C@H](CO)N1C[C@H](C)[C@@H](CN(C)C(=O)Nc2ccc(F)cc2)Oc2ccc(NC(=O)Nc3ccccc3)cc2C1=O	-1.1
COc1ccc(S(=O)(=O)Nc2ccc3c(c2)C(=O)N([C@H](C)CO)C[C@H](C)[C@@H](CN(C)C(=O)Nc2ccc(C(F)(F)F)cc2)OCCCC[C@@H](C)O3)cc1	0.6
Cc1noc(C)c1NC(=O)N(C)C[C@H]1Oc2ccc(NC(=O)Cn3cnnn3)cc2C(=O)N([C@@H](C)CO)C[C@@H]1C	1.0
C[C@H](CO)N1C[C@H](C)[C@@H](CN(C)Cc2ccc(Cl)c(Cl)c2)Oc2ccc(NC(=O)CCN3CCOCC3)cc2CC1=O	-0.7
C[C@@H]1CN([C@@H](C)CO)C(=O)c2cccc(N(C)C)c2O[C@@H]1CN(C)Cc1ccccc1	0.4
C[C@H](CO)N1C[C@H](C)[C@H](CN(C)C(=O)Nc2ccc3c(c2)OCO3)OCCCC[C@H](C)Oc2ccc(NC(=O)Nc3ccc(C(F)(F)F)cc3)cc2C1=O	-0.2
Cc1noc(C)c1S(=O)(=O)Nc1ccc2c(c1)C(=O)N([C@H](C)CO)C[C@H](C)[C@H](CN(C)C(=O)c1ccncc1)OCCCC[C@H](C)O2	0.2
C[C@H](CO)N1C[C@H](C)[C@H](CN(C)S(=O)(=O)c2cn(C)cn2)Oc2ccc(NC(=O)NC3CCCCC3)cc2C1=O	-0.1
O=C(NO)c1ccc(C(=O)N/N=C/c2cc3ccccc3n2S(=O)(=O)c2ccccc2)cc1	0.6
CNC[C@H]1OCCCC[C@H](C)Oc2ccc(NC(=O)CCCN(C)C)cc2C(=O)N([C@H](C)CO)C[C@@H]1C	-1.1
Cc1noc(C)c1NC(=O)N(C)C[C@@H]1OCCCC[C@H](C)Oc2ccc(NC(=O)C3CCCCC3)cc2C(=O)N([C@H](C)CO)C[C@H]1C	-0.8
C[C@H]1CN([C@@H](C)CO)C(=O)c2cccc(NC(=O)Nc3ccc(C(F)(F)F)cc3)c2O[C@H]1CN(C)S(=O)(=O)c1cccs1	-0.9
C[C@@H]1CN([C@H](C)CO)C(=O)CCCn2nncc2CO[C@H]1CN(C)C(=O)c1cc(-c2ccccc2)on1	-1.3
O=C(O)CCCCCCC(=O)Nc1ccc(C2OC(CSc3ccncc3)CC(c3ccccc3)O2)cc1 (stereo unspecified)	-0.4
COc1ccc(S(=O)(=O)N(C)C[C@H]2Oc3ccc(NS(=O)(=O)c4ccc(Cl)cc4)cc3C(=O)N([C@@H](C)CO)C[C@@H]2C)cc1	0.1
O=C(CCCCCCC(=O)Nc1ccc(CO)cc1)NOCc1ccccc1	0.1
C[C@H]1CN([C@@H](C)CO)C(=O)Cc2cc(NC(=O)NC3CCCCC3)ccc2O[C@@H]1CN(C)S(=O)(=O)c1ccc(Cl)cc1	0.1
Cc1ccc(S(=O)(=O)Nc2ccc3c(c2)C(=O)N([C@H](C)CO)C[C@H](C)[C@@H](CN(C)Cc2ccc(Oc4ccccc4)cc2)O3)cc1	-0.5
C[C@H](CO)N1C[C@H](C)[C@H](CN(C)C(=O)NC2CCCCC2)Oc2ccc(NS(=O)(=O)c3ccc(Cl)cc3)cc2C1=O	-0.2

Other entries follow.
SMILES	A1 apoptosis 2
C[C@H](CO)N1C[C@H](C)[C@@H](CN(C)C)OCCCC[C@H](C)Oc2ccc(NC(=O)Nc3cccc4ccccc34)cc2C1=O	-0.1
CC(C)NC(=O)N(C)C[C@@H]1Oc2ncc(-c3cccc(F)c3)cc2C(=O)N([C@H](C)CO)C[C@@H]1C	1.6
C[C@@H]1CCCCO[C@@H](CN(C)S(=O)(=O)c2ccccc2)[C@@H](C)CN([C@H](C)CO)C(=O)c2cc(NC(=O)CCCN(C)C)ccc2O1	-0.2
COc1ccc(CN(C)C[C@H]2OCCCC[C@H](C)Oc3ccc(NC(=O)CCC(F)(F)F)cc3C(=O)N([C@H](C)CO)C[C@H]2C)cc1	0.3
Cc1ccc(S(=O)(=O)Nc2ccc3c(c2)C(=O)N([C@H](C)CO)C[C@H](C)[C@H](CN(C)Cc2ccc(Cl)c(Cl)c2)OCCCC[C@H](C)O3)cc1	1.6
O=C(CCCCC(=O)N/N=C/CCC1CCCCC1)NO	0.1
COc1ccc(CN(C)C[C@H]2Oc3ccc(NC(=O)Nc4ccc(C(F)(F)F)cc4)cc3C(=O)N([C@H](C)CO)C[C@H]2C)cc1	-0.2
C[C@@H]1CN([C@H](C)CO)C(=O)Cc2cc(NC(=O)Nc3cccc4ccccc34)ccc2O[C@H]1CN(C)Cc1ccc2c(c1)OCO2	1.5
C[C@@H]1CN([C@H](C)CO)C(=O)c2cc(NS(=O)(=O)c3cn(C)cn3)ccc2O[C@H]1CN(C)C(=O)Nc1ccc(F)cc1	-0.5
C[C@@H]1CN([C@@H](C)CO)C(=O)c2cccc(NS(=O)(=O)c3ccccc3)c2O[C@H]1CN(C)C(=O)Nc1ccc2c(c1)OCO2	1.4

Laid out differently: results already given
Structure | A1 apoptosis 2
C[C@H](CO)N1C[C@H](C)[C@H](CN(C)C(=O)NC2CCCCC2)Oc2ccc(NS(=O)(=O)c3ccc(Cl)cc3)cc2C1=O | -0.2
C[C@H](CO)N1C[C@H](C)[C@@H](CN(C)C)OCCCC[C@H](C)Oc2ccc(NC(=O)Nc3cccc4ccccc34)cc2C1=O | -0.1
CC(C)NC(=O)N(C)C[C@@H]1Oc2ncc(-c3cccc(F)c3)cc2C(=O)N([C@H](C)CO)C[C@@H]1C | 1.6
C[C@@H]1CCCCO[C@@H](CN(C)S(=O)(=O)c2ccccc2)[C@@H](C)CN([C@H](C)CO)C(=O)c2cc(NC(=O)CCCN(C)C)ccc2O1 | -0.2
COc1ccc(CN(C)C[C@H]2OCCCC[C@H](C)Oc3ccc(NC(=O)CCC(F)(F)F)cc3C(=O)N([C@H](C)CO)C[C@H]2C)cc1 | 0.3
Cc1ccc(S(=O)(=O)Nc2ccc3c(c2)C(=O)N([C@H](C)CO)C[C@H](C)[C@H](CN(C)Cc2ccc(Cl)c(Cl)c2)OCCCC[C@H](C)O3)cc1 | 1.6
O=C(CCCCC(=O)N/N=C/CCC1CCCCC1)NO | 0.1
COc1ccc(CN(C)C[C@H]2Oc3ccc(NC(=O)Nc4ccc(C(F)(F)F)cc4)cc3C(=O)N([C@H](C)CO)C[C@H]2C)cc1 | -0.2
C[C@@H]1CN([C@H](C)CO)C(=O)Cc2cc(NC(=O)Nc3cccc4ccccc34)ccc2O[C@H]1CN(C)Cc1ccc2c(c1)OCO2 | 1.5
C[C@@H]1CN([C@H](C)CO)C(=O)c2cc(NS(=O)(=O)c3cn(C)cn3)ccc2O[C@H]1CN(C)C(=O)Nc1ccc(F)cc1 | -0.5
C[C@@H]1CN([C@@H](C)CO)C(=O)c2cccc(NS(=O)(=O)c3ccccc3)c2O[C@H]1CN(C)C(=O)Nc1ccc2c(c1)OCO2 | 1.4

(cont.)
SMILES	A1 apoptosis 2
C[C@@H]1CCCCO[C@H](CN(C)C(=O)c2ccccc2)[C@@H](C)CN([C@@H](C)CO)C(=O)c2cc(NC(=O)Nc3ccccc3)ccc2O1	0.2
COc1ccc(CN(C)C[C@H]2Oc3c(NC(=O)NC4CCCCC4)cccc3C(=O)N([C@@H](C)CO)C[C@@H]2C)cc1	0.1
C[C@@H]1CN([C@@H](C)CO)C(=O)c2cc(NC(=O)Cc3ccccc3)ccc2O[C@@H]1CN(C)Cc1ccc(Cl)c(Cl)c1	-1.5
C[C@@H]1CN([C@@H](C)CO)C(=O)c2cccc(NS(C)(=O)=O)c2O[C@H]1CN(C)S(=O)(=O)c1ccc(F)cc1	0.0
C[C@H](CO)N1C[C@H](C)[C@H](CN(C)Cc2ccc(Cl)c(Cl)c2)Oc2ccc(NC(=O)NC3CCCCC3)cc2C1=O	-1.1
CC(C)NC(=O)Nc1ccc2c(c1)C(=O)N([C@H](C)CO)C[C@H](C)[C@H](CN(C)S(C)(=O)=O)OCCCC[C@H](C)O2	0.8
C[C@@H]1CN([C@@H](C)CO)C(=O)Cc2cc(NC(=O)Nc3ccc4c(c3)OCO4)ccc2O[C@@H]1CN(C)Cc1ccc(C(=O)Nc2ccccc2N)cc1	-0.1
CCCC[C@H]1OB(O)C[C@H]2C1=C(COc1ccccc1)Cn1c(=O)n(-c3ccccc3)c(=O)n12	-0.3
C[C@@H]1CCCCO[C@H](CN(C)C(=O)c2ccccc2)[C@H](C)CN([C@H](C)CO)C(=O)c2cc(NC(=O)c3ccncc3)ccc2O1	-1.1
C[C@H](CO)N1C[C@H](C)[C@@H](CN(C)C(=O)Nc2ccc3c(c2)OCO3)Oc2ccc(NC(=O)CCC(F)(F)F)cc2C1=O	0.3
COc1ccc(CN(C)C[C@@H]2OCCCC[C@@H](C)Oc3ccc(NC(=O)Nc4c(C)noc4C)cc3C(=O)N([C@H](C)CO)C[C@@H]2C)cc1	-0.1
C[C@@H]1CN([C@@H](C)CO)C(=O)c2cccc(NS(C)(=O)=O)c2O[C@H]1CN(C)S(=O)(=O)c1cn(C)cn1	-0.7
